# SmPrx2 inh: blocks S. mansoni peroxiredoxin 2 enzymatic activity; S. mansoni Prx2 activity coupled to TGR/GSH (TGR is thioredoxin glutathione reductase), NADPH fluorescence loss, qHTS; some inactives read as strong as hits; Potency, µM; 65,000 compounds, 0.07% hits; AID 448; active means full or partial inhibition curve with a strong effect at the top dose; inconclusive means weaker partial or single-point curve; inactive means no accepted curve; further: series up to 57 µM; many of its hits are not listed in these tables
#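 Enzyme mix: 100 uM NADPH, 25 nM TGR, 700 uM GSH, 50 nM Prx2 in 100 mM phosphate pH 7.4, 10 mM EDTA, 0.01% Tween-20. 15 min RT with compound; NADPH/GSH added, H2O2 starts reaction; NADPH fluorescence read 8 min.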
# Anthrax LT inh: blocks cellular internalization of anthrax lethal toxin; Potency, µM (highest dose often 40 µM), without a hit: at the top dose activity change, negative = inhibition, usual class: inhibitors; 70,000 compounds, 0.67% hits; Cells, anthrax lethal toxin internalization, FRET ratio (460/530); active = well fitted falling ratio curve with the 530 nm signal flat; inconclusive = other ratio curves, or a change in one channel alone; inactive = flat curves in the ratio and both channels; the % refers to the ratio; further: on the % scale 0 is the no-effect control and ±100 the full control effect; nearly all actives have a fitted effect of over 50% in size; tested in ME-180 cells; beta-lactamase reporter
# * marks the source's active call; other numbers are inactive results; ? = inconclusive; nt = no result given; & = joins results of further samples; [ ] = remark or other dose. Potency means the concentration at half of the fitted maximal effect. This is a subset; the hit share may differ from the screen's.
# Value order – SmPrx2 inh, Anthrax LT inh
Cc1csc(NC(=O)CN2CCCCCC2)n1
→ >57, -3%
CCOC(=O)c1ccc(NC(=O)CN(C)S(=O)(=O)c2ccc(OC)cc2)cc1
→ >57, 4%
NC(=O)CNC1CC(=O)N(CCc2ccccc2)C1=O (configuration not stated)
→ >57, -3%
CCN(CC)c1ccc2oc(=O)c(C)nc2c1
→ >57, ?
CCOCC(=O)Nc1cccc(OC)c1
→ >57, 2%
Cc1ccc(C(=O)NCc2ccco2)cc1S(=O)(=O)N1CCCCC1
→ >57, -26%
Cc1cc([P+](=O)O)c(C)n1-c1ccc(Br)cc1
→ >57, -9%
COCC(=O)Nc1cc(=O)n(C)c(=O)n1C
→ >57, -2%
COc1ccc(Cc2ccc3[nH]c(=O)cc(C)c3c2)cc1S(=O)(=O)O
→ >57, 15%[8 µM]
COc1ccc(-c2nnc(NC(=O)c3cc(C)on3)s2)cc1
→ >57, 3%

# (continued)
# Value order – SmPrx2 inh, Anthrax LT inh
CC(C)(C)OC(=O)N1CCC(c2c(C(=O)O)cnn2-c2ccccc2Cl)CC1
→ >57, 4%
O=C(CCN1C(=O)c2ccccc2C1=O)OCn1nnc2ccccc2c1=O
→ >57, 4%
CC1=C(C(=O)Nc2ccccc2)C(c2cccs2)n2nnnc2N1 (configuration not stated)
→ >57, -11%
COc1ccccc1CN1CCCC2(CCN(C(=O)c3cccn3C)CC2)C1
→ >57, ?
CCOC(=O)N1CCN(C(=O)CC(=O)Nc2ccc3nc4n(c(=O)c3c2)CCCCC4)CC1
→ >57, -8%
O=C(CN(Cc1ccco1)C(=O)CNS(=O)(=O)c1ccc(F)cc1)NCCc1ccccc1
→ >57, -2%
CCCOc1ccc(/C(O)=C2/C(=O)C(=O)N(CCOC)C2c2cccnc2)cc1 (configuration not stated)
→ >57, 2%
COc1cc2[nH]c(=O)n(CCCCCC(=O)NCCCN3CCC(C)CC3)c(=O)c2cc1OC
→ >57, -7%
C=CCN(Cc1cc(OC)ccc1OC)S(=O)(=O)N(C)C
→ >57, 0%
COC(=O)c1ccc(C(NC(=O)OCc2ccccc2)/C(C)=C/[C@@H](C)C(=O)NCCN2CCOCC2)cc1 (some centres not stated)
→ nt, 2%

# Next structures follow:
# Value order – SmPrx2 inh, Anthrax LT inh
O=C(CN1C(=O)CCS(=O)(=O)c2ccccc21)Nc1cccc(F)c1
→ >57, 0%
COCCNC(=O)Cc1cn(C)c2ccccc12
→ >57, -2%
CCCC(c1nnnn1Cc1ccc(OC)cc1)N1CCN(c2ccccc2OC)CC1 (configuration not stated)
→ >57, -23%
O=C(O)CCNC(=O)c1ccc(Br)o1
→ >57, -20%
COc1ccc2[nH]c(=O)c(CN(C)C(=O)c3ccncc3)cc2c1
→ >57, nt
CCCn1c(SCC(=O)N2CCN(c3ccc(OC)cc3)CC2)nc2c1c(=O)n(C)c(=O)n2C
→ >57, -9%
Cc1ccccc1N(CC(=O)NC1CCCC1)C(=O)CS(=O)CC(=O)Nc1ccc2c(c1)OCO2 (configuration not stated)
→ >57, -7%
COc1ccc(-n2c(=O)[nH]cc(C(=O)Nc3ccc(NC(C)=O)cc3)c2=O)cc1
→ >57, 20%
CN(C)/C=N/c1c(C#N)nnn1Cc1ccccc1
→ >57, -9%
O=C(OCC1CCCN2CCCCC12)c1ccc2c(c1)OCO2 (configuration not stated)
→ >57, -2%

# Continued.
# Value order – SmPrx2 inh, Anthrax LT inh
O=C(CCn1nc(-c2ccccc2)ccc1=O)NCCCN1CCCCCC1
→ >57, -5%
Cc1nc2ccc3[nH]snc3c2n1
→ nt, -7%
O=C(COc1ccc(-n2cnnn2)cc1)NCCc1ccc(F)cc1
→ >57, ?
CCn1c(SCc2nc(-c3ccc(OC)c(OC)c3)no2)nnc1-c1cccs1
→ >57, -4%
COc1ccccc1CN1C(=O)CCC1(C)C(=O)NCc1cccnc1 (configuration not stated)
→ >57, 4%
CN1CCN(C(=O)c2c(O)c3cccc4c3n(c2=O)CC4)CC1
→ >57, -21%
Cc1ccc(Cn2nc(C)c(NC(=O)c3cc(-c4ccc5c(c4)OCO5)on3)c2C)cc1
→ >57, -12%
COc1cccc(NC(=O)c2ccccc2-c2nc(-c3ccccc3)no2)c1
→ >57, nt
C=CCOc1c(Cl)cc(C2NC(=O)NC(C)=C2C(=O)OC)cc1Cl (configuration not stated)
→ >57, -17%
CCCCCCn1c(SCCC)nc2c1c(=O)[nH]c(=O)n2C
→ >57, -15%

# Remaining list, next part.
# Value order – SmPrx2 inh, Anthrax LT inh
N=c1c(C(=O)NCC2CCCO2)cc2c(=O)n3ccccc3nc2n1Cc1cccnc1 (configuration not stated)
→ >57, ?
COC(=O)c1ccc(C(NC(=O)OCc2ccccc2)/C(I)=C/[C@@H](C)C(=O)NCC2CC2)cc1 (some centres not stated)
→ nt, -10%
CS(=O)(=O)c1ccc2nc(NC(=O)c3cccs3)sc2c1
→ >57, 11%
CCN(CC)C(=O)c1sc(NC(=O)c2ccco2)c(C#N)c1C
→ >57, 3%
CCOc1ccc(-c2nc(N)ncc2-c2ccccc2)c(O)c1
→ >57, ?
O=S(=O)(NC1CCCC1)c1cccc(S(=O)(=O)N2CCC(n3nnc4ccccc43)CC2)c1
→ >57, -16%
CC1CC(C)(C)NC(=O)O1 (configuration not stated)
→ >57, 10%
Cn1c(-c2ccccc2)cc2c3no[n+]([O-])c3ccc21
→ >57, -4%
C=CCSC1=NC(N)=C(C#N)C2(CCCCC2)C1C(N)=O (configuration not stated)
→ >57, ?
CC(=O)Nc1c(O)nc(SCC(=O)N2CCN(c3ccc(F)cc3)CC2)[nH]c1=O
→ >57, -15%

# Single values from the entries so far.
# Anthrax LT inh result of Cc1nc2ccc3[nH]snc3c2n1 : -7%
# Anthrax LT inh result of CCOC(=O)c1ccc(NC(=O)CN(C)S(=O)(=O)c2ccc(OC)cc2)cc1 : 4%
# SmPrx2 inh result of CC1CC(C)(C)NC(=O)O1 (configuration not stated) : >57

# One compound at a time, from the list above:
# C=CCSC1=NC(N)=C(C#N)C2(CCCCC2)C1C(N)=O (configuration not stated) is entered as SmPrx2 inh = >57; Anthrax LT inh = ?
# N=c1c(C(=O)NCC2CCCO2)cc2c(=O)n3ccccc3nc2n1Cc1cccnc1 (configuration not stated) is entered as SmPrx2 inh = >57; Anthrax LT inh = ?

# (list continues)
# Value order – SmPrx2 inh, Anthrax LT inh
CC(C)OC(=O)CSc1nc2cccnc2n1C1CCCCC1
→ >57, -17%
COc1cccc(Cn2c(=O)c(-c3ccccc3)nc3cncnc32)c1
→ >57, 4%
CCOC(=O)c1sc(C)c2c1NC1(CCCCC1)NC2=O
→ >57, -10%
COc1ccc(NC(=O)c2oc3ccccc3c2NC(=O)COc2ccccc2OC)c(OC)c1
→ >57, -3%
CCOC(=O)c1ccc(-n2c(-c3ccco3)nc3ccccc3c2=O)cc1
→ >57, -6%
O=c1c2ccccc2nc(N2CCCC2)n1-c1ccc(Cl)cc1
→ >57, -14%
CCC(C)(C(=O)NC1CCCCC1)N(C(=O)c1cnccn1)c1c(C)n(C)n(-c2ccccc2)c1=O (configuration not stated)
→ >57, 10%
CC(C)Cn1c(N)c(C(=O)COC(=O)c2ccc3ccccc3n2)c(=O)n(C)c1=O
→ >57, -30%
CCOC(=O)c1nnn(-c2nonc2N)c1-c1cccs1
→ >57, 14%
CC(C)Cc1nnc(NC(=O)CCN2C(=O)c3ccccc3C2=O)s1
→ >57, -6%

# Continued:
# Value order – SmPrx2 inh, Anthrax LT inh
CCCn1nnnc1NCc1cccn1C
→ >57, ?
CCNS(=O)(=O)c1ccc(NC(=O)c2cc(C(F)(F)F)nn2C)cc1
→ >57, -9%
O=C1CC(c2ccccc2)C(=O)N1c1cccc(O)c1 (configuration not stated)
→ >57, 6%
c1ccc(CCc2ccccc2-c2nc(-c3ccccn3)no2)cc1
→ >57, -2%
CCCCCOc1ccc(CN2CCOCC2)cc1Cl
→ >57, -1%
O=C(CN(Cc1ccc2c(c1)OCO2)C(=O)CNS(=O)(=O)c1ccccc1)NCc1ccco1
→ >57, -7%
CCCOc1ccc(C(=O)NCCCn2ccnc2)cc1
→ >57, 4%
Cc1cccc(OCC(=O)Nc2ccc3c(c2)OCCO3)c1
→ >57, -10%
COC(=O)c1[nH]c2cccc(OC)c2c1NC(=O)CN1CCOCC1
→ >57, -4%
COc1ccc(S(=O)(=O)N2CCC(C(=O)N3CCCC3)CC2)cc1
→ >57, 15%

# (further entries)
# Value order – SmPrx2 inh, Anthrax LT inh
Cc1ccc(CC2(O)CC(C)N(C)CC2C)c(C)c1 (configuration not stated)
→ >57, ?
COC(=O)c1c(NC(=O)CSc2n[nH]c(N)n2)sc(C)c1C
→ >57, -3%
COc1ccc(Cl)cc1S(=O)(=O)N1CCCC(C(=O)NCC(N)=O)C1 (configuration not stated)
→ >57, 2%
COc1ccc(S(=O)(=O)Cc2ccc(C(=O)N3CCN(C4CCCCC4)CC3)o2)cc1
→ >57, -10%
COc1cc(NC(=O)c2ccco2)c(OC)cc1NC(=O)c1cc(OC)c(OC)c(OC)c1
→ >57, -12%
CCOP(=O)(c1ccc(N(C)C)cc1)C(O)c1c(Cl)cccc1Cl (configuration not stated)
→ >57, ?
CC(C)C(NS(=O)(=O)c1cccs1)C(=O)NCc1ccc2c(c1)OCO2 (configuration not stated)
→ >57, -6%
Cc1onc(-c2c(F)cccc2Cl)c1C(=O)Nc1cccc2nsnc12
→ >57, ?
Cn1c(=O)c(C(=O)Nc2ccccn2)c(O)c2ccccc21
→ >57, 1%
COc1cc(C(O)P(=O)(OC(C)C)c2ccc(N(C)C)cc2)cc(OC)c1OC (configuration not stated)
→ >57, ?

# (more compounds)
# Value order – SmPrx2 inh, Anthrax LT inh
Cc1ccc(S(=O)(=O)N(C)c2nonc2C)cc1
→ >57, -11%
Cc1ccc(S(=O)(=O)N2C(=O)CCC2C(=O)N2CCN(C)CC2)cc1 (configuration not stated)
→ >57, 21%
O=C(Nc1ccc2c(c1)CCC2)C1CCCO1 (configuration not stated)
→ >57, 6%
COc1ccc2c(c1OC)CN(C)CCc1cc3c(cc1C(O)C2)OCO3 (configuration not stated)
→ >57, -7%
O=c1c(-c2cccs2)nc2cnc(Oc3ccccc3)nc2n1C1CC1
→ >57, 9%
CS(=O)c1ccc(-c2nc(-c3ccc(F)cc3)c(-c3ccncc3)[nH]2)cc1 (configuration not stated)
→ >57&>57, ?
O=C(O)CCC/C=C\C[C@H]1[C@@H](/C=C\[C@@H](O)C2Cc3ccccc3C2)[C@H](F)C[C@H]1O
→ >57, 6%
CCC(=O)Nc1nc2ccc3nc(C)sc3c2s1
→ >57, -14%
c1ccc(C(c2nnnn2Cc2cccs2)N2CCN(C3CCCC3)CC2)cc1 (configuration not stated)
→ >57, -17%
CCN1C(=O)/C(=C2/Sc3ccc(OC)cc3N2C)SC1=Nc1cccc(O)c1
→ >57, -8%

# Following part:
# Value order – SmPrx2 inh, Anthrax LT inh
CCN(CCCNC(=O)CNC(=O)Cn1cnc2ccccc2c1=O)c1ccccc1
→ >57, 5%
c1ccc2c(c1)OCC(c1nn3cnnc3s1)O2 (configuration not stated)
→ >57, 1%
CCc1c(C)sc(NC(=O)C2CCCCC2C(=O)O)c1C(N)=O (configuration not stated)
→ nt, -14%
O=C(Nc1ccc(S(=O)(=O)N2CCOCC2)cc1)c1ccc(Cl)s1
→ >57, -9%
c1ccc(CNc2nc(-c3ccoc3)nc3ccccc23)cc1
→ >57, ?
CCOC(=O)c1sc(=S)n(-c2cc(OC)ccc2OC)c1N
→ >57, ?
C=CCNC(=O)C1CC(=O)N(c2ccc(OCC(=O)Nc3cccc(OC)c3)cc2)C1 (configuration not stated)
→ >57, 5%
COc1ccccc1Nc1nc(-c2cccs2)cs1
→ nt, ?
COCCn1c(SCC(=O)c2cccc(OC)c2)nnc1-c1ccco1
→ >57, -9%
Cc1nnc(SCC(=O)Nc2ccccc2NC(=O)CSc2nnc(C)s2)s1
→ >57, 3%

# Other records.
# Value order – SmPrx2 inh, Anthrax LT inh
Cc1cc(C)cc(Nc2ncc3c(n2)CC(c2ccco2)CC3=O)c1 (configuration not stated)
→ >57, -25%
CCOC(=O)Cc1cn2c(=O)cc(CSCC(=O)Nc3ccc(C)c(C)c3)nc2s1
→ >57, -5%
COC(=O)[C@@]1(Cc2ccc(OC)cc2)[C@H]2c3cc(C(=O)N4CCCC4)n(Cc4ccc(OC)c(OC)c4)c3C[C@H]2CN1C(=O)c1ccccc1
→ >57, ?
CCCCn1c(O)c(C(C)=Nc2c(C)n(C)n(-c3ccccc3)c2=O)c(=O)[nH]c1=O
→ >57, -2%
Cc1cc(N2CCN(c3ccccc3)CC2)n2c(n1)nc1ccccc12
→ >57, -2%
c1ccc(-c2noc(-c3ccc4ccccc4c3)n2)cc1
→ >57, -8%
O=C(CCNS(=O)(=O)c1cccs1)NCc1ccco1
→ >57, -9%
Cc1cc2ccccc2c(=O)n1CC(=O)NCC(=O)N1CCN(c2ccccc2F)CC1
→ >57, -3%
COc1ccccc1NC(=O)C(O)C(O)C(=O)Nc1ccccc1OC (configuration not stated)
→ >57, -1%
O=C(CSc1ccc(-c2ccc(F)cc2)nn1)N1CCCCC1
→ >57, -7%
Cc1cc(NC(=O)Cn2nc(C(F)(F)F)c3c2CCCC3)no1
→ >57, -1%

# Part of the list above in another layout.
Structure | SmPrx2 inh | Anthrax LT inh
COc1ccccc1NC(=O)C(O)C(O)C(=O)Nc1ccccc1OC (configuration not stated) | >57 | -1%
CCOC(=O)Cc1cn2c(=O)cc(CSCC(=O)Nc3ccc(C)c(C)c3)nc2s1 | >57 | -5%
